FPR binder: binds the human formylpeptide receptor FPR; P21462; 24,000 compounds, 0.74% hits; AID 440; inhibition, %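 (tested at 6.7 µM)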; FPR-expressing cells, fluorescent ligand binding, flow cytometry;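 note: 0% = buffer wells and 100% = receptor blocker peptide wells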
Target sequence (P21462 whole entry, looked up): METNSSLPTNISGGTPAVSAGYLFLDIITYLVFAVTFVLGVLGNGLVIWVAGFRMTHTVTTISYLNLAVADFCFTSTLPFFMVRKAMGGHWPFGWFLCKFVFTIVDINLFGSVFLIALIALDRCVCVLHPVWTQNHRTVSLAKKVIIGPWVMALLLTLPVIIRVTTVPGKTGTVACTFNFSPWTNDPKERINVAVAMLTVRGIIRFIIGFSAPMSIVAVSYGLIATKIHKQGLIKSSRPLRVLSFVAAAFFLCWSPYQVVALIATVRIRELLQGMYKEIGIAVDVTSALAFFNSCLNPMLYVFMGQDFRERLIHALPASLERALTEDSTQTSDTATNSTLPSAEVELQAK
VCAM-1 down: inhibitors of TNFa-induced VCAM-1 surface display, cell-based, plate reader, pooled HUVEC, TNFa stimulus (AID 454). HUVEC TNFa-induced VCAM-1 surface immunofluorescence, plate reader; numbers were filed only for top-ranked candidate wells. inhibition, % at 5 µM. 10,000 compounds, 0.2% hits;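 active = compound among top-ranked inhibitors of TNF-induced VCAM-1 adhesion protein staining, with the hit upheld by image or statistical review; inactive = the rest, including hits rejected on review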;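 note: 0% = TNFa with vehicle and 100% = cells without TNFa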
VCAM-1 up imaging: enhancers of VCAM-1 display on endothelial cells, imaging, high-content imaging, pooled HUVEC, TNFa stimulus (AID 457). Pooled HUVEC, TNFa-induced VCAM-1 immunofluorescence imaging; hits of this screen are not shown here. calls only. 10,000 compounds, 0.2% hits;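 active = a top-ranked rise in VCAM-1 staining upheld on image or statistical review; inactive = the rest, including candidates rejected on review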;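 note: compounds tested at 5 µM in the well; cells exposed to compound for 24 hours before fixing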
FPRL1 binder: binds the human formylpeptide receptor-like-1 FPRL1; FPRL1-expressing cells, fluorescent ligand binding inhibition, flow cytometry; 24,000 compounds, 0.3% hits; inhibition, %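 (tested at 6.7 µM)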; P25090;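 note: 0% = buffer alone and 100% = receptor blocker peptide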
Target sequence (P25090 whole entry, looked up): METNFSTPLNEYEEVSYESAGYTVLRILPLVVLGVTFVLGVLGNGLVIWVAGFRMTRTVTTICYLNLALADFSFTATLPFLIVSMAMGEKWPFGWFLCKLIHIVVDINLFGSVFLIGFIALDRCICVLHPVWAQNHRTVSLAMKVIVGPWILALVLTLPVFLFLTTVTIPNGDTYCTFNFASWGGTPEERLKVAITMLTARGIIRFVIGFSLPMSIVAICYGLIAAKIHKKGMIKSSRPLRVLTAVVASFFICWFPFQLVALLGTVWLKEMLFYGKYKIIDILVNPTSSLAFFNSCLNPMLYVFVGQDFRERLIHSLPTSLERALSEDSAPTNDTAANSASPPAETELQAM
VCAM-1 down imaging: inhibitors of TNFa-induced VCAM-1 surface display, imaging, high-content imaging, pooled HUVEC, TNFa stimulus (AID 456). inhibition, % at 5 µM, or IC50 in µM where a hit was titrated. HUVEC TNFa-induced VCAM-1 surface expression, immunofluorescence imaging; numbers were filed only for top-ranked candidate wells. 10,000 compounds, 0.2% hits;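 active = top tenth filtered wells with inhibition above zero that passed visual or statistical confirmation; inactive = the rest, including hits rejected on review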;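 note: 0% = stimulated vehicle wells and 100% = unstimulated cells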
The depositor's hits bear a star; i = inactive; . = no result given; & = joins results of further samples.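 Rule for the calls, unless noted: active = mean above 30%; inconclusive = self-fluorescent; inactive = the rest.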

structure	FPR binder	VCAM-1 down	VCAM-1 up imaging	FPRL1 binder	VCAM-1 down imaging
Nc1nc(-c2ccccc2)cc(-c2ccccc2O)n1	-17.4	.	.	-9.6	.
CCOC(=O)c1c(C)c(C(=O)Nc2ccc3c(c2)OCCO3)c(C)n1C	6.2	.	.	1.4	.
CCOC(=O)C1CCN(c2c(NCCCN3CCN(Cc4ccccc4)CC3)c(=O)c2=O)CC1	-6.3	.	.	5.9	.
N#CCCN(C(=O)Nc1ccc(Cl)cc1)c1ccccc1	1.9	i	i	3.3	i
C=CCc1ccccc1OCC(O)CN1CCN(c2ccc(OC)cc2)CC1 (configuration not stated)	-1.0	.	.	-7.6	.
COc1ccc2c(=O)c(-c3cnn(-c4ccccc4)c3)c(C)oc2c1	17.5	.	.	19.8	.
COc1ccc(NC(=O)NCCCN2CCc3ccccc3C2)cc1	-5.9	.	.	-3.0	.
COc1ccc2c(c1OC)C(=O)OC2C1c2c(cc3c(c2OC)OCO3)CCN1C (configuration not stated)	-6.4&-1.4	i	i	-5.5&-1.3	i

New compounds follow.
structure	FPR binder	VCAM-1 down	VCAM-1 up imaging	FPRL1 binder	VCAM-1 down imaging
O=C(NCCCn1ccnc1)c1cnn2c1NC(c1ccccc1)CC2C(F)(F)F (configuration not stated)	-6.9	i	i	-1.3	i
CCOc1ccc(C2CC(c3ccc(CC)cc3)n3nc(N)nc3N2)cc1 (configuration not stated)	0.2	.	.	-1.7	.
COc1ccc(C2C(C(=O)c3sc(C)nc3C)=C(O)C(=O)N2CCCn2ccnc2)cc1 (configuration not stated)	-2.9	.	.	5.4	.
CCCCCn1c(CCNC(=O)c2cccs2)nc2ccccc21	3.9	.	.	2.5	.
CCCN(Cc1cc2cc(C)ccc2[nH]c1=O)C(=O)c1cccc(OC)c1	-4.2	i	i	-1.6	i
O=c1c2c(nc3c(-c4cccc(Br)c4)c[nH]n13)CCCC2	21.9	.	.	-3.5	.
CCOc1ccc(NC(=O)CN(C)S(=O)(=O)c2cccs2)cc1	2.0	i	i	6.0	i
CCCOc1ccc(C(=O)Nc2cc(-c3nn4c(C)nnc4s3)ccc2C)cc1	-4.9	.	.	17.4	.

The closing two records of the section before are carried over, then new ones follow.
structure	FPR binder	VCAM-1 down	VCAM-1 up imaging	FPRL1 binder	VCAM-1 down imaging
CCOc1ccc(NC(=O)CN(C)S(=O)(=O)c2cccs2)cc1	2.0	i	i	6.0	i
CCCOc1ccc(C(=O)Nc2cc(-c3nn4c(C)nnc4s3)ccc2C)cc1	-4.9	.	.	17.4	.
NS(=O)(=O)c1cc2c(cc1C(F)(F)F)NCNS2(=O)=O	-7.8	i	i	-2.3	i
CCSc1nc2c(c(=O)[nH]1)C(c1ccncc1)C(C(=O)OC)=C(C)N2 (configuration not stated)	0.7	.	.	-6.9	.
O=C(Nc1cccc(C(F)(F)F)c1)C1CCN(S(=O)(=O)c2cnc[nH]2)CC1	1.5	.	.	-0.9	.
CCn1c(=O)cc(OCC(=O)N(C)c2ccccc2F)c2ccccc21	-0.2	.	.	-0.2	.
O=C(NCCc1ccc(Cl)cc1)C1CCCN(S(=O)(=O)c2cnc[nH]2)C1 (configuration not stated)	-0.8	.	.	2.8	.
CN1CCN(c2oc(COc3ccc(-c4ccccc4)cc3)nc2C#N)CC1	-13.9	i	i	-12.8	i
CC(C(=O)Nc1ccc(N2CCOCC2)cc1)N1C(=O)c2ccccc2C1=O (configuration not stated)	0.8	.	.	-2.5	.
CCOC(=O)N1CCN(S(=O)(=O)c2ccc3c(c2)OCC(=O)N3)CC1	1.7	.	.	-7.2	.

(more compounds)
structure	FPR binder	VCAM-1 down	VCAM-1 up imaging	FPRL1 binder	VCAM-1 down imaging
CCOc1ccc(NS(=O)(=O)c2ccc3[nH]cc(C(=O)NC(C)CC)c(=O)c3c2)cc1 (configuration not stated)	5.5	.	.	22.7	.
CC(=O)c1ccc(NC2OC(C)C(O)C(O)C2O)cc1 (configuration not stated)	-12.8	i	i	-1.7	i
CCOC(=O)c1sc(=S)n(-c2ccc3c(c2)OCO3)c1N	0.8	.	.	3.7	.
CCOC(=O)Cn1nnnc1CN(Cc1ccc(OC)cc1)Cc1cc2cc(C)cc(C)c2[nH]c1=O	-14.5	i	i	5.3	i
COCc1nnc(NC(=O)c2ccc(S(=O)(=O)N(C)c3ccccc3)cc2)o1	3.5	i	i	7.0	i
O=C(CSc1nnc(Cn2cnc3ccccc32)o1)c1ccccc1	1.9	i	i	3.1	i
COCc1nnc(NC(=O)CCCOc2ccccc2)s1	-4.6	i	i	3.1	i
COc1cc(NC(=O)Cc2ccccc2OC)cc(OC)c1	-6.2	i	i	1.7	i

Carrying on:
structure	FPR binder	VCAM-1 down	VCAM-1 up imaging	FPRL1 binder	VCAM-1 down imaging
Cc1oc(-c2cc(Cl)ccc2Cl)cc1-c1nn2c(C)nnc2s1	4.6	.	.	-6.9	.
O=C(CNS(=O)(=O)c1ccc(Br)s1)NCc1ccc2c(c1)OCO2	-9.1	.	.	-3.4	.
Cc1cc(C)c(C#N)c(Oc2ccc(O)cc2)n1	-4.7	.	.	-2.7	.
Cc1ccsc1C1C=C(c2cccc(Br)c2)Nc2ncnn21 (configuration not stated)	15.6	.	.	8.0	.
COc1ccc(-c2noc(CN(C(=O)C(C)(C)C)C(C)C)n2)cc1	-3.4	i	i	1.4	i
CC(=O)Oc1cccc2c1C(=O)c1c(OC(C)=O)cc(C(=O)O)cc1C2=O	-2.8	i	i	1.2	i
O=S(=O)(Nc1ccccn1)c1ccc(Oc2ccccc2)cc1	-1.1	i	i	1.3	i
COC(=O)c1ccc(OCC(=O)Nc2nn(-c3ccccc3)nc2C(N)=O)cc1	-0.6	.	.	0.7	.

The closing seven compounds of the section above open the next one:
Each structure is followed by: FPR binder | VCAM-1 down | VCAM-1 up imaging | FPRL1 binder | VCAM-1 down imaging
O=C(CNS(=O)(=O)c1ccc(Br)s1)NCc1ccc2c(c1)OCO2
    -9.1 | . | . | -3.4 | .
Cc1cc(C)c(C#N)c(Oc2ccc(O)cc2)n1
    -4.7 | . | . | -2.7 | .
Cc1ccsc1C1C=C(c2cccc(Br)c2)Nc2ncnn21 (configuration not stated)
    15.6 | . | . | 8.0 | .
COc1ccc(-c2noc(CN(C(=O)C(C)(C)C)C(C)C)n2)cc1
    -3.4 | i | i | 1.4 | i
CC(=O)Oc1cccc2c1C(=O)c1c(OC(C)=O)cc(C(=O)O)cc1C2=O
    -2.8 | i | i | 1.2 | i
O=S(=O)(Nc1ccccn1)c1ccc(Oc2ccccc2)cc1
    -1.1 | i | i | 1.3 | i
COC(=O)c1ccc(OCC(=O)Nc2nn(-c3ccccc3)nc2C(N)=O)cc1
    -0.6 | . | . | 0.7 | .
Cc1nn(C)c(C)c1S(=O)(=O)N1CCC(C(=O)Nc2ccc3c(c2)OCCO3)CC1
    1.9 | . | . | -2.2 | .
O=C(CS(=O)(=O)Cc1ccccc1)Nc1nc2ccccc2s1
    -0.7 | i | i | 2.8 | i
CCCS(=O)(=O)Nc1c(C(=O)O)[nH]c2ccccc12
    2.6 | i | i | 2.1 | i
COc1ccc(/C(O)=C2/C(=O)C(=O)N(Cc3cccnc3)C2c2ccco2)cc1OC (configuration not stated)
    -4.8 | . | . | -0.2 | .
O=C(CCOc1ccccc1)NCc1ccccc1
    -0.4 | i | i | -0.5 | i
CC(=O)N1CCc2cc(S(=O)(=O)NC(CC(C)C)C(=O)Nc3ccc4c(c3)OCCO4)ccc21 (configuration not stated)
    2.1 | . | . | 2.7 | .
Cc1oc(C)c(C(=O)NCCCC(=O)O)c1C(=O)NCCCC(=O)O
    -3.3 | . | . | -4.0 | .
Cc1ccsc1C1C2=C(CCCC2=O)Nc2ncnn21 (configuration not stated)
    8.8 | i | i | -2.4 | i
COc1ccc(CCNC(=O)c2cnccn2)cc1
    -1.6 | . | . | 0.8 | .
COc1cc(NC2=CC(=O)CC(C)(C)C2)cc(OC)c1
    -2.2 | i | i | 1.7 | i

(further entries)
Each structure is followed by: FPR binder | VCAM-1 down | VCAM-1 up imaging | FPRL1 binder | VCAM-1 down imaging
CC(=O)N1CCc2cc(S(=O)(=O)CCC(=O)O)ccc21
    0.1 | . | . | 3.3 | .
Cc1nn(Cc2ccc(Cl)c(Cl)c2)c(C)c1NC(=O)c1cc(CC(C)C)on1
    5.9 | . | . | 1.1 | .
Cc1cccc(NC(=O)CC2SC(=NC3CCCCC3)NC2=O)c1 (configuration not stated)
    -1.9 | . | . | -1.5 | .
CC(=O)NC(C)C(=O)OCC(=O)Nc1ccc(Br)cc1 (configuration not stated)
    3.1 | i | i | 2.7 | i
O=C(Nn1cnc2ccccc2c1=O)c1ccc(F)cc1Cl
    13.6 | . | . | 0.1 | .
CCOc1ccccc1N(CC(=O)NC1CCCC1)C(=O)CCCC(=O)Nc1ccccn1
    5.7 | i | i | 0.8 | i
O=C(O)c1cc(O)c2c(c1)C(=O)c1cccc(O)c1C2=O
    7.5 | i | i | -3.7 | i
O=C(c1cc(-c2cccc(O)c2)on1)N1CCc2ccccc2C1
    -1.1 | . | . | 0.7 | .
O=C(O)C1CC=CCC1C(=O)NCc1ccccc1 (configuration not stated)
    0.8 | i | i | 2.8 | i
Cc1nnc(NC(=O)CSc2nc3c(c(=O)n2C)SC(C)C3)s1 (configuration not stated)
    2.2 | i | i | -1.9 | i

(cont.)
Each structure is followed by: FPR binder | VCAM-1 down | VCAM-1 up imaging | FPRL1 binder | VCAM-1 down imaging
Cc1ccc(NC(=O)CSc2nnc(Cc3cccn3C)n2-c2ccc(F)cc2)c(C)c1
    4.8 | . | . | -6.8 | .
COc1cccc(C2/C(=C(\O)c3ccc(OC)c(OC)c3)C(=O)C(=O)N2c2cc(C)on2)c1 (configuration not stated)
    23.8 | . | . | -9.6 | .
CCOC(=O)N1CCC(NC(=O)CS(=O)(=O)Cc2nc(-c3ccc(C)cc3)oc2C)CC1
    1.3 | . | . | -3.8 | .
N#Cc1c(N2CCOCC2)nc(N2CCCCC2)c2c1CCN(C1CCCCC1)C2
    -6.5 | i | i | -2.5 | i
CC(=O)N1CCN=C1SCc1ccc(C)cc1
    -5.3 | . | . | 8.6 | .
CCN(CC)S(=O)(=O)N1CCC(C(=O)NC(C)CCc2ccccc2)CC1 (configuration not stated)
    -9.4 | . | . | 0.2 | .
Cc1ccc(C2CC(c3cccc(C)c3)n3nc(N)nc3N2)cc1 (configuration not stated)
    -0.6 | . | . | -13.1 | .
CN1CCN(CCCNc2nc3ccccc3c3nc(-c4ccccc4)nn23)CC1
    -3.4 | . | . | -2.6 | .
CCn1nnc(NC(=O)c2ccc(-c3ccc(Cl)cc3)o2)n1
    0.4 | i | i | 3.1 | i
O=C(CNS(=O)(=O)c1ccc(Br)s1)N1CCC(N2CCCCC2)CC1
    1.5 | . | . | -2.3 | .

Additional results.
Each structure is followed by: FPR binder | VCAM-1 down | VCAM-1 up imaging | FPRL1 binder | VCAM-1 down imaging
COc1ccc(/C(O)=C2/C(=O)C(=O)N(Cc3ccco3)C2c2cccs2)cc1 (configuration not stated)
    8.2 | . | . | -5.6 | .
O=C(OCCN=C1NS(=O)(=O)c2ccccc21)C1CC(=O)N(c2ccc(Cl)cc2)C1 (configuration not stated)
    -7.2 | i | i | -1.9 | i
Cc1oc(-c2ccccc2F)nc1CS(=O)(=O)CC(=O)NCCCN1CCc2ccccc2C1
    6.3 | i | i | 5.7 | i
COc1ccc(CCNC(=O)CSC2=Nc3ccccc3C3=NC(C(C)C)C(=O)N23)cc1OC (configuration not stated)
    -1.4 | . | . | -3.0 | .
CCC(C)(NC(=O)c1ccc(=O)[nH]c1)C(=O)NC1CCCC1 (configuration not stated)
    -1.8 | i | i | -4.7 | i
CCOc1ccc(C(F)(F)F)cc1NC(C)=O
    -2.2 | . | . | 5.4 | .
CCOC(=O)c1sc(NC(=O)c2cccnc2)nc1C
    4.1 | . | . | -2.6 | .
COCCn1c(=N)c(C(=O)NCCc2ccccc2)cc2c(=O)n3cccc(C)c3nc21
    -4.4 | i | i | -6.4 | i
CCOC(=O)C1CCN(c2c(NCc3ccc(C(=O)NCCC(C)C)cc3)c(=O)c2=O)CC1
    -1.3 | . | . | 0.3 | .
Cc1[nH]nc(N=CC2=C(O)CC(C)(C)CC2=O)c1-c1ccccc1
    -6.0 | i | i | -2.8 | i
CCOc1ccc(C(=O)Nc2ccc(NC(=O)c3ccco3)c(Cl)c2)cc1Br
    1.9 | . | . | -20.0 | .
CCOC(=O)c1[nH]c(C)c(C(=O)N2CCOCC2)c1C
    0.4 | . | . | -4.2 | .
Cn1c(NC(=O)c2ccccc2NC(=O)C(C)(C)C)nc2ccccc21
    -4.3 | i | i | -1.7 | i

High-throughput results (PubChem BioAssay)

Only part of the results is shown; rates above refer to the full screens.
